Screening results as filed in PubChem.
ALR inh – blocks human ALR sulfhydryl oxidase activity; AID 485317; purified ALR, DTT oxidation, H2O2 HRP-luminol luminescence; 3.8% of 290,000 active; inhibition, % (test concentration not listed); P55789;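 active means mean and each replicate at 75% or more; inconclusive means only one of the two met; inactive means neither met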;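 further: stock transfer was 7.5 nL into about 7.5 µL; 0% = neutral wells and 100% = wells with inactivated enzyme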
Target sequence (P55789 whole entry, looked up): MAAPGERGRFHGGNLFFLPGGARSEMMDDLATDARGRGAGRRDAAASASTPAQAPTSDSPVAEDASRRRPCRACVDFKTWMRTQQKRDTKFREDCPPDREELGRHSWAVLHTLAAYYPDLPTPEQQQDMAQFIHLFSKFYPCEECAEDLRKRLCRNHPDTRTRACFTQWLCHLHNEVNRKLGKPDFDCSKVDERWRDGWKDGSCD
Calb FLC – C. albicans growth modulation with fluconazole | C. albicans CaCi-2 (fluconazole-resistant clinical isolate) + fluconazole, Alamar Blue growth, 48 h | growth inhibition, % (concentration not given with the values) | 0.57% of 300,000 active | AID 1979;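 active means most replicates above 75%; inconclusive means exactly half above 75%; inactive means most below 75%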;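 further: all wells also contain fluconazole at 8 µg/ml as a sub-toxic cotreatment; 0% = median of DMSO wells and 100% = median of geldanamycin control wells; wells of about 8 µL received 7.5 nL stock; the first replicate is given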
Beta apoptosis – blocks beta cell apoptosis; INS-1E cytokine-induced death, ATP luminescence, 48 h; percent of positive-control rescue, neutral wells zero; protection from apoptosis, % (no concentration beside the values); 0.8% of 300,000 active; AID 435005;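 active means all replicates at 75% or more, or half of them and the mean; inconclusive means half reach 75% but not the mean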;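 further: 0% = cytokine-treated negative control wells and 100% = positive control rescue; higher means more ATP so stronger rescue from cytokine killing; wells of about 40 µL received 100 nL stock; the first replicate is given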
Ecoli rRNA inh – inhibits bacterial ribosomal RNA function over humanized ribosomes; E. coli WT GFP vs humanized-ribosome RFP mutants, fluorescence, 24 h; active compounds read low; DMSO median 0, no signal -100; GFP signal change (wild-type ribosome), % (test concentration not listed); 1.6% of 350,000 active; AID 720706;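 active means significant combined selectivity score with lowered wild-type GFP, culture density cut under 30%, mutant RFP and density less affected; inactive means any of these conditions unmet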; further: one replicate is shown; some compounds called inactive have numbers as strong as hits
T cruzi inh – T. cruzi replication inhibition | inhibition, % (concentration not given with the values) | AID 1885 | 1.4% of 300,000 active | T. cruzi beta-gal in NIH3T3, luminescence, 90 h;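 active means mean inhibition across valid replicates above about 55%, limit read from the data; inconclusive means mean below that limit but half or more replicates reach it; inactive means mean below it, under half of replicates reach it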;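 further: signal also drops with host cell toxicity which is not excluded here; 0% = plate median of DMSO wells and 100% = zero luminescence signal; higher percent means less beta-gal luminescence so fewer parasites; stock transfer was 50 nL into about 50 µL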
Bfl-1 A1 inh – inhibitors of the anti-apoptotic protein A1, read as caspase activation | MEF A1-2A-BIM cells, Caspase-Glo 3/7 luminescence, 3 h; percent of clofoctol response, vehicle zero | caspase activation, % (no concentration beside the values) | 0.066% of 330,000 active;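 active means over half of replicate activation scores above 10%, or exactly half above 10 with the replicate mean above 10; inconclusive means replicate mean below 10 yet half the replicates above 10; inactive means over half of replicates below 10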;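 further: wells of about 30 µL received 50 nL stock; many hits fall short of the cut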
LANA-H2A inh – blocks KSHV LANA binding to histone H2A/H2B. Q9QR71. cell-free LANA-H2A/H2B peptide, fluorescence polarization. inhibition, % (concentration not given with the values). 0.6% of 320,000 active. AID 2629; in the data active means inhibition mostly above about 10%, no sharp cut-off; inactive means mostly below about 6.7%;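 further: stock transfer was 7.5 nL into about 10 µL; 0% = median of vehicle wells and 100% = median of positive control wells; one replicate is shown; the record names a cut of 25% in any replicate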
B2AR ag – human beta-2 adrenergic receptor agonism by FAP. P07550. Am2.2-beta2AR cells, FAP receptor internalization, flow cytometry; reference of the scale not given here. response, % (concentration not given with the values). 0.43% of 340,000 active;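 active means response above a set limit, near 3 SD of response in nonfluorescent compounds, cut at about 42% in these data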;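 further: stock transfer was 100 nL into about 11 µL; a reference agonist was the positive control; negative values mostly stem from fluorescent compounds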
Target sequence (P07550 whole entry, looked up): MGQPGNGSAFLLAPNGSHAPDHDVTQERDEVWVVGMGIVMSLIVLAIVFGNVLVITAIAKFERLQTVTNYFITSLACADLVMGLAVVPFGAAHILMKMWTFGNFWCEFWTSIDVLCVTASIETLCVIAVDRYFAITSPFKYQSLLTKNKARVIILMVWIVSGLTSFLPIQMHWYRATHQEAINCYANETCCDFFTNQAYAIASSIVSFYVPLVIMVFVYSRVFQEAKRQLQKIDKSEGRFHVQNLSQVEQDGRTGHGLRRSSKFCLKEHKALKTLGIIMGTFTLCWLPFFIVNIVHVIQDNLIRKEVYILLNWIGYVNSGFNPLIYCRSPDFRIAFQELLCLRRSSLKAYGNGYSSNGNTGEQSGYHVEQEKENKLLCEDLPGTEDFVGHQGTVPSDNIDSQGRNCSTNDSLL
Ecoli rRNA inh OD600 – recorded beside Ecoli rRNA inh, whose call it bears; OD600 change, %; measured here: OD600 growth;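 optical density of the mix in the first replicate; 0 = DMSO median and -100 = no signal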
Ecoli rRNA inh RFP – further read-out of Ecoli rRNA inh, marked with its call; RFP signal change, %; measured here: RFP humanized mutant strains;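 first replicate; 0 = DMSO median and -100 = no signal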
* hit, by the source's call; ? = inconclusive; / = not tested or not shown. An excerpt; rates above refer to the full screens.

SMILES	ALR inh	Calb FLC	Beta apoptosis	Ecoli rRNA inh	Ecoli rRNA inh OD600	Ecoli rRNA inh RFP	T cruzi inh	Bfl-1 A1 inh	LANA-H2A inh	B2AR ag
Cc1cc(C)n(C(=O)CNc2cccc(Cl)c2C)n1	-5	7	3	/	/	/	-2	-1.2	-3.4	-5
Cc1cc(C)c(S(=O)(=O)N2CCN(C(=O)CCn3nc(C)c(C)c3C)CC2)c(C)c1	-47	7	-4	-5	-11	4.4	11	0.2	-0.5	5
COc1ccc(-c2nc(C#N)c(N3CCN(c4ccccc4)CC3)o2)cc1	-8	9	-1	-1	9	-3.5	11	-0.4	0.5	6
NNC(=O)CCS(=O)(=O)c1ccc2ccccc2c1	-12	1	-4	/	/	/	-1	-1.8	-1.5	4
Cc1nn(Cc2ccccc2)c2ncccc12	-10	-5	1	17	10	2.9	-7	0.1	-1.8	-11
O=C(NCC1CCCO1)C1CC(=O)N(c2ccc(Cl)cc2)C1 (stereo not drawn)	1	0	-1	2	1	-1.5	-6	-0.6	-2.0	2
CCOc1ccc(S(=O)(=O)N2CCN(c3ccccc3F)CC2)c2cccnc12	/	-7	5	/	/	/	9	0.5	-7.0	-18
CCN(CC)S(=O)(=O)c1ccc(Cl)c(NC(=O)COc2ccc(OC)cc2[N+](=O)[O-])c1	-33	-3	/	/	/	/	-2	1.1	-2.4	12
Cc1ccc(C2(C)NC(=O)N(CC(=O)N(c3ccccc3)C3CCS(=O)(=O)C3)C2=O)cc1 (stereo not drawn)	-6	/	0	8	8	-3.4	/	1.2	0.5	1
Cc1ccc(Nc2ccc(S(=O)(=O)N3CCOCC3)cc2[N+](=O)[O-])cc1C	-7	23	33	/	/	/	11	0.2	4.2	-4
O=C(COC(=O)CCC(=O)c1cccs1)NCc1ccccc1	-8	1	2	17	5	-4.0	-3	-1.3	-1.9	-8
CCC1CCCCN1C(=S)Nc1ccc(C(C)=O)cc1 (stereo not drawn)	-3	-5	-2	/	/	/	-3	-1.0	-3.7	4
Cc1cc(NC(=O)CCN2CC(C)OC(C)C2)ccc1Br (stereo not drawn)	-13	0	-7	-4	-9	0.4	-17	0.8	-1.1	1
Cc1ccc(Nc2nc(N)nc(CN3CCN(Cc4ccc5c(c4)OCO5)CC3)n2)c(C)c1	-4	1	/	/	/	/	-13	0.6	0.7	-9
COc1ccc(Oc2ccc(C(F)(F)F)cc2NC(=O)CC(CC(=O)O)c2ccccc2)cc1 (stereo not drawn)	/	1	/	-36*	-14*	1.4*	-8	1.5	0.6	1
NS(=O)(=O)c1ccc(CCNC(=O)COC(=O)COc2cccc(C(F)(F)F)c2)cc1	-3	/	-6	5	6	-0.7	/	-0.3	1.0	0
CCC(O)(CC)C(=O)N(Nc1ccc(C)cc1)c1ccc(C)cc1	-4	-7	1	-1	2	1.2	7	0.6	2.3	10
O=C(Cc1ccccc1)Nc1ccc(C(=O)NCc2ccccc2)cc1	5	10	-2	20	14	1.4	3	-0.2	0.1	-2
CS(=O)(=O)N1CCC(Oc2ccccc2C(=O)N2CCN(CC3CC3)CC2)CC1	0	-3	-9	19	10	2.7	-1	-2.0	3.4	-4
COc1ccc(C2C(C(=O)Nc3ccc(OC)c(OC)c3)c3ccccc3C(=O)N2C)cc1 (stereo not drawn)	/	-16	1	4	-5	2.3	-12	-0.7	1.8	-3
COc1ccc(CNC(=O)CCC2N=C3c4ccccc4N=C(SCC(=O)NCC4CCCO4)N3C2=O)cc1 (stereo not drawn)	-4	1	-3	-25	-23	-3.9	-9	-0.1	4.7	-5
CC(=O)Nc1c(Nc2ccccc2)c2ccccc2oc1=O	3	4	-1	1	12	3.7	4	0.5	-3.6	4
COc1ccc(NC(=O)CSc2nnc(Cc3cccs3)n2C)cc1	-11	0	6	-1	-4	-1.5	-8	-0.5	-5.6	3
Cc1[nH]c2ccc(C(=O)NCCCN3CCN(C)CC3)cc2c1C	5	11	-2	18	14	2.5	9	-0.6	-2.3	-4
C/C=C\C(=O)Nc1cccc(C2=NOC3(C2)C[C@@H](C(N)=O)N(C(=O)CCCCC)C3)c1 (stereo partly drawn)	/	-6	6	4	3	-8.7	-12	0.8	-2.3	-3

(next part)
SMILES	ALR inh	Calb FLC	Beta apoptosis	Ecoli rRNA inh	Ecoli rRNA inh OD600	Ecoli rRNA inh RFP	T cruzi inh	Bfl-1 A1 inh	LANA-H2A inh	B2AR ag
O=C(O)CSC(NC(=O)c1cccnc1)(C(F)(F)F)C(F)(F)F	-5	5	/	/	/	/	-8	0.9	1.2	-2
O=C(NC(Cc1c[nH]c2ccccc12)C(=O)O)c1cccs1 (stereo not drawn)	-3	9	-1	7	-6	-4.4	-9	0.3	-4.3	1
COc1ccccc1OCc1ccc(C(=O)N/N=C/c2ccco2)cc1	19	15	-4	10	17	-0.3	-21	-2.0	0.2	-4
Cc1ccc(CN(C)CCc2ccccn2)cc1	96*	-29	-3	/	/	/	67*	-0.1	-2.2	7
O=C(c1cccc(NS(=O)(=O)c2cccc(F)c2)c1)N1CCN(c2ccccc2)CC1	10	15	-1	-9	-15	-6.1	8	-0.2	-5.1	-6
O=C(CSc1nnc2sc3ccccc3n12)N1CCN(c2ccccc2)CC1	31	?	4	-24	-14	19	8	-0.1	-0.7	-24
CCOCCCNC(=O)C(c1ccccc1)N(Cc1cccs1)C(=O)CNC(=O)c1ccccc1 (stereo not drawn)	-9	4	-11	-4	-1	5.2	-2	-0.6	-1.8	-8
COc1ccc2c(c1)C(c1ccccc1)=NNC(c1ccco1)=N2	20	-16	-11	-1	-6	-5.4	13	-0.4	2.2	-25
CCN(CC)c1nc(C)c2c(c1C#N)CC(C)(C)OC2	/	21	-8	/	/	/	11	0.7	1.0	3
Cc1cccc(OCCCCCN2CCOCC2)c1C	-2	-5	-10	-2	1	-2.6	6	-0.6	-0.7	-2
Cc1ccc(S(=O)(=O)N2CCCCC2)cc1NC(=O)c1ccccn1	-3	8	-5	3	0	-4.6	6	0.1	2.9	1
CCCCCn1c(=O)[nH]c2cc(C(=O)Nc3ccc(OC)cc3)ccc2c1=O	-2	-10	-4	/	/	/	-12	0.2	3.6	7
O=c1c2ccccc2n(Cc2ccc(Cl)cc2)c(=O)n1Cc1ccco1	5	?	6	/	/	/	3	0.3	1.2	4
COc1ccc(C)cc1-n1c(SCC(=O)Nc2cccc(C(=O)O)c2)nc2ccccc2c1=O	3	6	-8	2	-2	0.5	-17	-0.6	2.0	-2
Cc1cc(Cl)ccc1OCC(=O)NCCCCc1ccccc1	-2	-5	3	/	/	/	14	-0.6	2.1	11
CCOC(=O)c1c(C)[nH]c(C)c1S(=O)(=O)NC(CC)CN1CCOCC1 (stereo not drawn)	-2	-1	/	13	2	3.4	-19	0.8	4.7	7
COc1ccc2c(c1)C(=NN)c1cc(OC)ccc1-2	/	-14	1	/	/	/	-23	0.1	-4.4	3
O=C(Cn1c2ccccc2c(=O)c2ccccc21)N/N=C/c1cc([N+](=O)[O-])ccc1N1CCCCCC1	1	-3	16	/	/	/	-21	-0.8	2.3	7
O=C(N/N=C/c1cccc([N+](=O)[O-])c1)c1cnccn1	6	2	-12	/	/	/	-11	-0.8	2.9	-11
O=C(Nc1ccc(Br)c(Cl)c1)c1ccco1	-3	-2	9	/	/	/	-10	-4.7	4.2	-20
O=C(Cc1c(Cl)cccc1Cl)OCC(=O)N1CCN(C(=O)c2ccco2)CC1	-4	-8	-2	-5	-5	1.4	-6	0.2	-1.1	-13
CCOc1ccc(-c2nnc(NC(=O)Cc3ccc(OC)cc3)o2)cc1	1	-5	-10	2	6	-0.7	-14	0.3	2.6	10
COc1ccc(Nc2cc(=O)n(-c3ccccc3)c3c2c(=O)n(C)c(=O)n3C)cc1	-3	-10	-3	9	18	-1.8	15	0.4	-0.6	-13
CSc1ccccc1Sc1cc(C(=O)O)c2ccccc2n1	39	-1	/	/	/	/	4	0.8	-4.0	0
O=C(Nc1ccc(N2CCN(C(=O)c3ccco3)CC2)c(Cl)c1)c1cccs1	-4	40	/	/	/	/	27	0.2	-1.2	18

Further structures:
SMILES	ALR inh	Calb FLC	Beta apoptosis	Ecoli rRNA inh	Ecoli rRNA inh OD600	Ecoli rRNA inh RFP	T cruzi inh	Bfl-1 A1 inh	LANA-H2A inh	B2AR ag
CCOc1ccc(NC(=O)CCSc2nc3c(c(CC)c2C#N)C(=O)CC(C)(C)C3)cc1	/	0	-6	/	/	/	55*	0.4	17	9
CCc1c(O)nc(SCC(=O)N(CC)CC)[nH]c1=O	/	5	1	12	12	-3.0	-19	0.0	-0.3	0
Cc1cc(OC(=O)c2cccc([N+](=O)[O-])c2)c(C)cc1CN1CCOCC1	1	0	-4	-4	-5	-2.2	-6	0.2	2.7	12
N#Cc1ccc(CSCC(=O)NN=C2CCCC2)cc1	1	-1	7	-1	5	2.0	12	0.0	-6.0	5
Cc1ccc(/C(O)=C2\C(=O)C(=O)N(CCN(C)C)C2c2ccccc2F)cc1 (stereo not drawn)	27	-15	5	/	/	/	-7	-0.5	0.6	2
CN(C)C(CNS(=O)(=O)c1ccc(Cl)cc1F)c1ccco1 (stereo not drawn)	-8	/	-3	4	7	4.1	/	0.6	4.8	5
COc1ccc(CC(=O)OCCc2cc3cc(OC)c(OC)cc3c(=O)o2)cc1	4	/	0	-18	-8	-12	/	1.0	-2.4	1
O=C(NCc1ccccc1Cl)C(=O)c1cn(CC(=O)N2CCOCC2)c2ccccc12	-9	15	-12	-3	-9	0.4	-9	-1.0	0.2	-1
O=C(Nc1ccc(F)cc1F)N1CCCCC1c1cccnc1 (stereo not drawn)	-8	-13	4	/	/	/	57*	2.6	-0.2	1
Cc1cc(C)nc(NS(=O)(=O)c2ccc(NC(=S)NC(=O)c3ccco3)cc2)n1	32	-11	2	-7	-4	-0.4	-10	-1.6	-9.6	-10
COc1ccc(Oc2c(C)oc3c(CN4CCOCC4)c(O)ccc3c2=O)cc1	1	-1	-7	/	/	/	1	-0.2	3.4	-20
COc1cccc([C@@H]2Oc3ccc(OC)cc3C(=O)[C@H]2OC(=O)Nc2cc(OC)c(OC)c(OC)c2)c1	-1	/	1	/	/	/	/	2.1	0.2	/
CSCCC(=O)N1CCCC(CO)(CCCc2ccccc2)C1 (stereo not drawn)	/	3	-8	-6	-5	1.2	0	0.7	-4.1	-8
C[C@H](NC(=O)[C@@H]1Cc2ccccc2CN1)C(=O)Nc1ccc2c(c1)OCCO2	-11	-8	0	3	-7	-1.7	-2	-1.4	3.0	9
COc1cc(OC)c2c(N)c(C#N)c(C(F)(F)C(F)(F)F)nc2c1	-3	-3	3	/	/	/	2	-0.1	0.1	-7
COc1ccc2oc(=N)c(-c3nnc4n3CCCCC4)cc2c1	-7	5	0	/	/	/	-16	0.3	-0.4	-10
CC(C)C(c1nnnn1C1CCCC1)N1CCOCC1 (stereo not drawn)	1	1	-2	/	/	/	-3	1.6	-3.5	-5
Cc1c(C(=O)N2CCCC2)oc2c1-c1nn(CC(=O)NCCCN3CCCCC3)cc1CC2	-51	24	-4	6	6	2.2	2	0.3	0.4	-9
